# TRPML1 blocker: inhibitors of human TRPML1 channel; TRPML1-inducible cells, Ca2+ dye fluorescence, FDSS; hits give low values; inhibition of EC80 agonist-evoked calcium signal; activity change, negative = inhibition, % (concentration not given with the values); actives 0.02% (n = 390,000); AID 624415; in the data active means activity change below about -50%; inconclusive means about -30% to -50%; inactive means above about -30%;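 note: stimulus is agonist 54-4 at its EC80 concentration; % is set by controls: 0 for no effect and ±100 for the full control effect; compound concentration not given in the record; the text of the record puts the active cut at -80%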
# Target sequence (Q9GZU1 whole entry, looked up): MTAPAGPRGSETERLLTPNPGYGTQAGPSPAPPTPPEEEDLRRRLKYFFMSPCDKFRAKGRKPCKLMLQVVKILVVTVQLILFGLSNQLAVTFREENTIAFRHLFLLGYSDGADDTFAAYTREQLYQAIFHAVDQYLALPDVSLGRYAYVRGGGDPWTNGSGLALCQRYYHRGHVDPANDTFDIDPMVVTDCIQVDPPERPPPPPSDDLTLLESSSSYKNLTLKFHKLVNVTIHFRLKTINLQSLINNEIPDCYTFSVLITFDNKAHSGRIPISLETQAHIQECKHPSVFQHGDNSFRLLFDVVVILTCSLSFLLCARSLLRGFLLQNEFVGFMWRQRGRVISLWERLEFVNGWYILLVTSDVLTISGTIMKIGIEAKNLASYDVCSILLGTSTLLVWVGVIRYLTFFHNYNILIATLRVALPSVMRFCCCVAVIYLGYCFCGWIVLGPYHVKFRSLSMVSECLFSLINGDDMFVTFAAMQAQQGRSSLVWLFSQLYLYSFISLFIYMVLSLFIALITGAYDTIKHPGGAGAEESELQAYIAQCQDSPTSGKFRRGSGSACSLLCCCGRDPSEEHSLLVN
#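 Tet-induced TRPML1-DL cells loaded with Ca8 no-wash calcium dye were read kinetically on FDSS. Compound addition was followed by EC80 agonist 54-4 (4 uM final); inhibition was read over 110 s.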
# CtBP-E1A inh: blocks the CtBP interaction with E1A | AlphaScreen GST-E1A/His-CtBP binding, 1536-well; hits give low values; control for the full effect not named in the record | activity change, % (test concentration not listed) | actives 0.49% (n = 340,000) | AID 651724; in the data active means activity change below about -65%; inconclusive means about -30% to -65%; inactive means above about -30%; note: % is set by controls: 0 for no effect and ±100 for the full control effect; compound concentration not given in the record
#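 GST-E1A and His-tagged CtBP (125 nM each as 5X stock) were preincubated with pin-transferred compound for 2 h at 37 °C in the dark, then glutathione donor and nickel acceptor beads were added for 1 h before AlphaScreen reading.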
# TRPML1 agonist: human mucolipin-1 channel agonism; TRPML1-expressing cells, Ca2+ dye fluorescence, FDSS; host cell line not named in the record; reference of the full effect not given here; activation, % (test concentration not listed); actives 0.12% (n = 410,000); AID 624414; in the data active = activation above about 50%; inconclusive = about 30% to 50%; inactive = below about 30%; note: 0% is about no effect; the text of the record puts the active cut at 80%
#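 Tetracycline-induced TRPML1-DL cells are seeded and incubated overnight before loading with a no-wash Ca2+ dye and quencher. Agonist activity is taken from the 110 s fluorescence read following compound pin-transfer on an FDSS, before EC80 54-4 challenge.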
# PINK1 modulator: modulators of PINK1 expression; PINK1 immunofluorescence, high-content cytometry, 24 h; Potency, µM (series often up to 76.6 µM), for the others: top-dose activation (PINK1 increase), actives largely listed as activators; actives 0.2% (n = 410,000); AID 624263; active = well fitted activation curve with a large enough effect; inconclusive = small, poorly fitted or top-dose-only effect; inactive = flat fitted curve, though single readings scatter; cell line not stated here;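 note: potency is the fitted concentration of half-maximal effect; % of control where 0% means no effect; nearly all actives have a fitted effect of over 65% in size; a mitochondrial uncoupler was the plate control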
#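 A stable cell line was treated with compounds at 5 concentrations for 24 hours, with CCCP as control. PINK1 levels and mitochondrial localization were measured by immunofluorescence with mitochondrial, cell and nuclear markers after fixation, read by laser-scanning cytometry.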
# Six1-Eya2 inh: blocks human Six1 binding to Eya2. Q15475+O00167. AlphaScreen GST-Six1/His-Eya2 binding, biochemical; hits give low values; control for the full effect not named in the record. activity change, % (test concentration not listed). actives 0.56% (n = 360,000). AID 651725; in the data active = activity change below about -65%; inconclusive = about -30% to -65%; inactive = above about -30%; note: % is set by controls: 0 for no effect and ±100 for the full control effect; compound concentration not given in the record
#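 Compounds are tested against tagged Six1 and Eya2 proteins bridged by glutathione donor and nickel acceptor beads; after a one-hour incubation at 37 °C without light, AlphaScreen emission is recorded.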
# D2 ag: agonists of human D2 dopamine receptor (beta-arrestin). P14416. DiscoveRx PathHunter D2 beta-arrestin, luminescence, 90 min; 100% = 57 uM dopamine signal. activation, % (no concentration beside the values). actives 0.084% (n = 360,000). AID 624465; in the data active = activation above about 40%; inconclusive = about 15% to 40%; inactive = below about 15%; note: compound concentration not given in the record; the text of the record calls up to 30% inactive
# Target sequence (P14416 whole entry, looked up): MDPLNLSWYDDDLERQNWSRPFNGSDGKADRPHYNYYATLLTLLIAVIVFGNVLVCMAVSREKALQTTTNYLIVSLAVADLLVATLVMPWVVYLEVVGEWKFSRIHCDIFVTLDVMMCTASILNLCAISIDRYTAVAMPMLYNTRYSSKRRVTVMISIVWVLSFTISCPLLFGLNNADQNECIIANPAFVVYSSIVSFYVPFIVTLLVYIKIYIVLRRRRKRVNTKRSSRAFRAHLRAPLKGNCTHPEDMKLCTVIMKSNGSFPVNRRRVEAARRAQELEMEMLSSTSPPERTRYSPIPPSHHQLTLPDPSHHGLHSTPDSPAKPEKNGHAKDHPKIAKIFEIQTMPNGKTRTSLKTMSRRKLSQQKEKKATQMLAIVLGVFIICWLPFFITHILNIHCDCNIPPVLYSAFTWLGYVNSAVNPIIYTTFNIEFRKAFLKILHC
#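 Agonist mode: compounds alone added to overnight-plated D2 PathHunter cells for 90 min at 37 C, with 57 uM final dopamine (EC100) defining full response. Beta-arrestin recruitment detected by chemiluminescent reagent, read after 1 h at ambient temperature.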
# * hit, by the source's call; ? = inconclusive; . = no result given; & = joins results of further samples; [ ] = remark or other dose.
1) Cc1ccc(SCC(=O)Nc2cccc(NC(=O)c3ccco3)c2)cc1
2) O=C(COc1ccc(Cl)cc1Cl)NCCCNC(=O)c1cnccn1
3) Cc1cc(C)n(C(=O)c2ccc([N+](=O)[O-])c(Cl)c2)n1
4) O=C1C=C(c2ccccc2)CO1
5) Cc1cc(NC(=O)CCN2C(=O)C3C4C=CC(C4)C3C2=O)ccc1Br (centres undefined)
6) CCOC(=O)N1CCC(NC(=O)c2cc(COc3c(C)cccc3C)on2)CC1
7) CC(C)N1CCCC(C)(C(=O)Nc2nccc3ccccc23)C1 (centres undefined)
8) COc1ccc(Cl)cc1CNCCSc1nnnn1C
screen / no.	1	2	3	4	5	6	7	8
TRPML1 blocker	4	-11	-23	-4	-9	1	.	6
CtBP-E1A inh	0	-25	12	-1	2	3	2	.
TRPML1 agonist	4.2	0.2	-0.6	-0.2	0.9	-0.5	-0.4	-0.6
PINK1 modulator	1.9%	1.5%	3.1%	0.4%	1.4%	-0.6%	1.0%	-0.2%
Six1-Eya2 inh	20	-14	-3	-1	-6	-1	9	.
D2 ag	0.1	3.9	-0.2	0.8	-0.6	3.3	-3.4	.

# Continued, starting with the last 4 of the part before.
5) Cc1cc(NC(=O)CCN2C(=O)C3C4C=CC(C4)C3C2=O)ccc1Br (centres undefined)
6) CCOC(=O)N1CCC(NC(=O)c2cc(COc3c(C)cccc3C)on2)CC1
7) CC(C)N1CCCC(C)(C(=O)Nc2nccc3ccccc23)C1 (centres undefined)
8) COc1ccc(Cl)cc1CNCCSc1nnnn1C
9) Cc1nn(C)c2c1c(-c1ccccc1)cc(=O)n2CC(=O)NC(C)C
10) CCC12CN3CCN(CC(C3)/C1=N\NC(=O)c1ccc(F)cc1)C2
11) Cc1ccccc1NC(=O)Cn1c(=O)n(Cc2ccccc2)c(=O)c2sc3ccccc3c21
12) COc1cccc(CN(C)C(=O)c2cc(S(=O)(=O)NCc3ccccc3)ccc2C)c1OC
13) COc1ccc(CC(=O)Nc2cc(=O)n(C)c(=O)n2C)cc1OC
14) CN(CCCNC(=O)Cn1cc2c(n1)CCCC2)C1CCCCC1
15) CCOc1ccc(C2C(C(=O)c3ccco3)=C(O)C(=O)N2Cc2cccnc2)cc1OC (centres undefined)
16) CCCC1S/C(=N/N=C/c2ccc(OC)cc2)N(Cc2ccccc2)C1=O (centres undefined)
screen / no.	5	6	7	8	9	10	11	12	13	14	15	16
TRPML1 blocker	-9	1	.	6	7	-25	-19	12	-9	3	-6	57
CtBP-E1A inh	2	3	2	.	.	3	.	-1	-4	-21	6	5
TRPML1 agonist	0.9	-0.5	-0.4	-0.6	0.7	0.3	-0.3	-0.6	-0.3	1.6	-0.5	0.0
PINK1 modulator	1.4%	-0.6%	1.0%	-0.2%	2.1%	1.1%	-0.5%	-0.2%	0.1%	-3.7%	0.2%	-1.0%
Six1-Eya2 inh	-6	-1	9	.	.	4	.	0	-8	9	3	4
D2 ag	-0.6	3.3	-3.4	.	.	-2.0	.	1.0	-6.4	-0.7	-0.7	-2.9

17) OC1C[N+]2(CCCCC2)C1
18) NC1=NC(=O)/C(=C/c2cn(CCC(=O)O)nc2-c2ccc(Cl)cc2)S1
19) Cc1cc(C)cc(N(CC(=O)NC2CCCC2)C(=O)C2(C)CC(=O)N=C3C=CC=CN32)c1 (centres undefined)
20) O=C(NC12CC3CC(CC(C3)C1)C2)c1cccnc1
21) CC/C(=N/NC(=O)CNc1ccc(Cl)cc1C)c1ccccc1
22) CC1CC(C)CN(CCCn2c(=S)[nH]c3ccccc3c2=O)C1 (centres undefined)
23) O=C(O)c1cccc(N2C(=O)c3ccc(C(=O)c4cccc([N+](=O)[O-])c4)cc3C2=O)c1
24) CCOC(=O)c1c(C)[nH]c(C(=O)C(C)OC(=O)c2cccc(OCc3c(C)noc3C)c2)c1C (centres undefined)
screen / no.	17	18	19	20	21	22	23	24
TRPML1 blocker	-9	-5	-10	14	2	17	1	1
CtBP-E1A inh	-1	3	7	4	2	-7	4	-15
TRPML1 agonist	0.9	0.3	1.4	0.7	2.6	1.2	-0.8	1.8
PINK1 modulator	1.7%[38.3 µM]	-1.8%	-1.4%	-1.5%[38.3 µM]	8.6%	-2.1%	0.1%	4.6%
Six1-Eya2 inh	5	-20	3	4	10	-17	0	-9
D2 ag	-0.7	-3.4	0.9	-2.3	1.6	-5.4	-1.7	0.1

25) Cc1cc(N2CC(C)OC(C)C2)nc2ccccc12 (centres undefined)
26) COc1ccc(/C(C)=N/NC(=O)Cc2ccc(Cl)cc2)cc1
27) Cc1ccc(N2CC(NC(=O)C3CCCC3)CC2=O)cc1C (centres undefined)
28) CC(C)(C)c1ccccc1OCC(=O)Nc1ccccc1C(=O)NCc1cccnc1
29) Cc1ccc(C)c(Nc2nn3c(=O)c4cc5c(cc4nc3s2)OCO5)c1
30) O=S(=O)(Nc1ccc(O)c2ccccc12)c1cccs1
31) COc1cc(NC(=S)N(C)CCC#N)c(OC)cc1Cl
32) CC(C)(C)C(CO)NC(=O)c1ccc[nH]1 (centres undefined)
screen / no.	25	26	27	28	29	30	31	32
TRPML1 blocker	-3	-2	-20	19	0	-9	12	28
CtBP-E1A inh	11	-13	.	0	.	-4	3	3
TRPML1 agonist	2.2	1.6	-1.0	4.2	1.6	-1.4	-0.4	0.1
PINK1 modulator	0.6%	0.6%	0.9%	2.6%	0.4%	-3.8%	1.2%	0.0%
Six1-Eya2 inh	13	5	.	-3	.	-9	4	-4
D2 ag	-1.9	1.4	.	2.8	.	?	-2.7	-3.2

33) Clc1ccccc1Sc1cnc2ccccc2n1
34) CC(C)C[C@@H](CNCC(=O)[C@H](CC(C)C)NC(=O)c1[nH]cnc1C(=O)N[C@@H](C)CN)NC(=O)c1nc[nH]c1C(=O)N[C@@H](CC(C)C)C(=O)O
35) CCOc1ccc(S(=O)(=O)Nc2cccc(C(=O)NCC(c3ccco3)N3CCCC3)c2)cc1 (centres undefined)
36) O=C(COc1c(Br)cc(Br)c2cccnc12)Nc1ccccc1F
37) Cc1ccc(C)c(NC(=O)N2CCCCCC2)c1
38) O=S(=O)(c1ccc(Cl)cc1)N1CCN(Cc2c[nH]c3ccccc23)CC1
39) CN(CC(=O)Nc1ccc(F)cc1)CC(=O)N(C)C1(C#N)CCCCC1
40) Cc1ccc(CNC(=O)CCc2c(C)nn(-c3ccc(N4CCOCC4)nn3)c2C)cc1
screen / no.	33	34	35	36	37	38	39	40
TRPML1 blocker	9	-7	20	21	-1	-3	12	-15&-20
CtBP-E1A inh	7	-8	1	.	-5	5	-9	.
TRPML1 agonist	-0.4	-0.2	0.6	2.0	-0.5	-0.1	4.3	4.4&-0.7
PINK1 modulator	-0.2%	0.4%	-0.9%	0.4%	-0.4%	.	-0.1%	1.1%&1.0%
Six1-Eya2 inh	38	-16	-6	-8	0	0	9	-6
D2 ag	-3.3	-2.7	-8.0	-1.1	-4.2	-2.0	-19	-1.7

41) COC(=O)CC1Oc2ccccc2-n2cc(-c3ccc(C)cc3)nc21 (centres undefined)
42) Brc1ccccc1-c1nc2c3ccccc3ncn2n1
43) O=C(CSc1nc2c(c(=O)n1-c1ccc(Br)cc1)SCC2)NCc1ccco1
44) c1ccc(Cn2ccnc2C2OCCO2)cc1
45) N#Cc1ccccc1S(=O)(=O)N1CCC(C(=O)Nc2cccc(C(=O)NC3CC3)c2)CC1
46) Cc1ccc(OCc2cc(C(=O)N(C)Cc3cc(C4CC4)n[nH]3)no2)cc1C
47) Cc1ccn2c(Nc3ccccc3C)c(-c3ccc(N4CCOCC4)cc3)nc2c1
48) Cc1nnc2n(-c3ccccc3)c(=O)c3c4c(sc3n12)COC(C)(C)C4
screen / no.	41	42	43	44	45	46	47	48
TRPML1 blocker	-14	2	4	2	-4	15	17	3
CtBP-E1A inh	.	0	0	4	-17	.	.	8
TRPML1 agonist	0.2	-0.7	1.1	0.4	2.0	-0.1	0.2	2.0
PINK1 modulator	4.5%	-0.9%	-4.4%[38.3 µM]	0.6%	6.0%	4.1%	0.2%	-1.5%
Six1-Eya2 inh	.	-6	-6	-2	6	-5	.	-5
D2 ag	.	3.3	0.8	1.6	-0.7	-1.8	.	-3.1

49) CC1=N/C(=C\c2ccc([N+](=O)[O-])cc2)C(=O)N1c1ccc(Br)c(C)c1
50) CCCCN1C(=O)C(=O)c2cc(Cl)ccc21
51) COc1cc(-c2nnc(SCCOc3cc(C)cc(C)c3)o2)cc(OC)c1OC
52) COc1ccc(N(C)S(=O)(=O)c2cccc(C(=O)Nc3nc4ccccc4[nH]3)c2)cc1
53) CCc1cccc(NC(c2ccccc2)c2nnc(-c3ccccc3F)o2)c1 (centres undefined)
54) CCC1=Nc2cc(C(=O)NCCN3CCCC3)ccc2Sc2ccc(C)cc21
55) COCCn1c(C)cc(C(=O)COC(=O)c2c(C)nn(Cc3ccccc3)c2C)c1C
56) CCCCN(C)C(=O)c1nc2ccccn2c1CN(C)Cc1csc(C)n1
screen / no.	49	50	51	52	53	54	55	56
TRPML1 blocker	-7	-5	80	14	26	16	8	-25
CtBP-E1A inh	-5	-9	.	-20	.	-16	-16	0
TRPML1 agonist	-0.4	0.7	-0.6	0.2	3.7	0.5	-0.5	-0.7
PINK1 modulator	.	-0.6%	-0.2%	0.5%	2.4%	4.1%	-0.4%	-0.9%
Six1-Eya2 inh	-17	-14	.	?	.	-6	-23	7
D2 ag	-0.2	-18	.	1.3	.	1.8	-2.0	-2.9

57) O=c1[nH]c2c(c3c1CCCC3)CCCC2
58) S=C(Nc1ccc(Nc2ccccc2)cc1)Nc1ccccn1
59) COc1ccc(-c2nc3sc(CCNC(=O)C(=O)Nc4ccccc4C#N)c(C)n3n2)cc1
60) COc1cc(C(=O)NCC(c2cccs2)N(C)C)cc(Cl)c1OC(C)C (centres undefined)
61) COc1ccc(CC(=O)N2CCc3cc(OC)c(OC)cc3C2)cc1
62) COc1cc(C2C(C(C)=O)=C(O)C(=O)N2CCc2c[nH]c3ccccc23)ccc1O (centres undefined)
63) CCOC(=O)C1(Cc2cccc(F)c2)CCN(Cc2nc(CC)[nH]c2C)CC1
64) CCOC(=O)[C@]12CCC=C1N(Cc1ccc(Cl)cc1Cl)C(=O)[C@H](CC(=O)N1CCC(c3ccccc3)CC1)C2
65) COC(=O)CSC1=C(C#N)C(c2ccc(F)cc2)CC(=O)N1 (centres undefined)
66) O=C(NCCc1c[nH]c2ccccc12)c1cnccn1
screen / no.	57	58	59	60	61	62	63	64	65	66
TRPML1 blocker	15	-1	-9	27	-10	-8	10	.	0	10
CtBP-E1A inh	9	?	.	-2	1	-1	-6	-2	-11	6
TRPML1 agonist	1.5	-0.7	0.8	2.2	0.1	-0.3	0.0	0.5	-0.8	-0.6
PINK1 modulator	.	0.7%	1.6%	0.4%	4.9%	-0.6%	?	1.2%	2.8%	0.6%
Six1-Eya2 inh	3	?	.	5	19	4	2	-15	-16	-4
D2 ag	1.6	0.2	.	-3.6	4.8	-1.4	-4.3	.	0.5	1.8
